N370S GC mod: N370S glucocerebrosidase modulation, Gaucher chaperone candidate; N370S GC spleen homogenate, 4MU-glucoside fluorescence; Potency, µM (titrated, usually from 59.4 µM), for the others: top-dose activity change, negative = inhibition, actives largely listed as inhibitors; P04062; 330,000 tested, 0.092% active;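 note: 0% = full enzyme activity and -100% = no enzyme basal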
TDP1 block: blocks human tyrosyl-DNA phosphodiesterase 1; recombinant TDP1, AlphaScreen DNA substrate cleavage; Potency, µM (titrated, usually from 130 µM), inactives show at the highest dose activity change, negative = inhibition, hits mostly inhibitors; 350,000 tested, 0.28% active; note: nearly all actives have a fitted effect of over 40% in size
Target sequence (Q9NUW8 whole entry, looked up): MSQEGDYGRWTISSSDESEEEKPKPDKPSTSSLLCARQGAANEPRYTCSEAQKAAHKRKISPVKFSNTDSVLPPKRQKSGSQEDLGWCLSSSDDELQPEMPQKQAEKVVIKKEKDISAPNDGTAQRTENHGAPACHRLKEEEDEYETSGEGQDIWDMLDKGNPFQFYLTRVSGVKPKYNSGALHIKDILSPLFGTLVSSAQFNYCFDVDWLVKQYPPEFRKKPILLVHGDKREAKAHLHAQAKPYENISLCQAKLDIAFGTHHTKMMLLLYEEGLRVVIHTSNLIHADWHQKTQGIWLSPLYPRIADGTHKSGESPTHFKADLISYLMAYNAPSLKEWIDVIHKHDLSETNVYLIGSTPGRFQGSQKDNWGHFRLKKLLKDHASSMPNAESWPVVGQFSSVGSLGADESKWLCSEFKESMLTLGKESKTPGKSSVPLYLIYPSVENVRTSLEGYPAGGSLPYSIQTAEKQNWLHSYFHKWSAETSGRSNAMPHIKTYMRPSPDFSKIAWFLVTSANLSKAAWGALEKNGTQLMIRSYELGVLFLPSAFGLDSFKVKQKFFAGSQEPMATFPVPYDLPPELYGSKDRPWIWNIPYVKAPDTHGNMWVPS
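Here, a 5' biotin and 3' phosphotyrosine-FITC DNA oligonucleotide reports Tdp1 activity: intact substrate bridges AlphaScreen beads, while cleavage leaves a 3' phosphate and drops signal. All incubations at room temperature.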
Numbers without * were called inactive; ? = inconclusive; . = no result given; & = joins results of further samples; ! = not active in a repeat; [ ] = dose if it differs, or a comment. Calls come from the whole dose curve; as a rule, active = well fitted curve in the direction sought with a large enough effect; inconclusive = small, poorly fitted or top-dose-only effect, or another doubt; inactive = no such curve, though single readings can be large; an effect the other way counts as inactive or inconclusive. Unless noted, % is set by controls: 0 for no effect and ±100 for the full control effect; potency is the fitted concentration of half-maximal effect. Not all compounds are listed; most or all hits stand in other tables.

SMILES	N370S GC mod	TDP1 block
CCC(CCC(C)C1CCC2C3CC=C4CC(O)CC[C@@]4(C)C3CC[C@@]12C)C(C)C (stereo partly drawn)	0%	5%
Nc1ccc(Cc2ccc(N)c(Cl)c2)cc1Cl	1%	13%
CCCCOC(=O)c1ccccc1C(=O)OCCCC	2%&14%	-9%[56.1 µM]
CC1OC1P(=O)(O)O (stereo not drawn)	1%&9%	-6%&6%[56.1 µM]
C[C@]12CCC(=O)C[C@@H]1CC[C@@H]1[C@@H]2CC[C@]2(C)[C@@H](O)CC[C@@H]12	3%	0%&5%
C[C@]12CC[C@@H](O)CC1CCC1C2CC[C@]2(C)C(=O)CC[C@@H]12 (stereo partly drawn)	-1%	11%[56.1 µM]
c1ccc2c(c1)OCC(C1=NCCN1)O2 (stereo not drawn)	-9%&-1%&0%	4%
O=[N+]([O-])c1c2ccccc2cc2ccccc12	11%	8%&11%
CC(C)OC(=O)Cc1ccccc1	0%	0%&6%
CC1(C)C(C=C(Cl)Cl)C1C(=O)OC(C#N)c1cccc(Oc2ccccc2)c1 (stereo not drawn)	9%&25%	?
C[C@]12CCC3C(C=CC4=CC(=O)CC[C@]43C)C1CC[C@]2(O)CCC(=O)O (stereo partly drawn)	-7%	20%
C[C@]12C/C(=C/O)C(=O)C[C@@H]1CC[C@@H]1[C@@H]2CC[C@@]2(C)[C@H]1CC[C@]2(C)O	-13%	19%
CC(=O)N1CCN(c2ccc(OCC3CO[C@@](Cn4ccnc4)(c4ccc(Cl)cc4Cl)O3)cc2)CC1 (stereo partly drawn)	-28%	18%[56.1 µM]
COc1ccccc1[N+](=O)[O-]	12%	0%&19%
CN1CCC(c2c[nH]c3ccc(O)cc23)CC1	5%&3%&-7%	9%[56.1 µM]
CN[C@@H]1C[C@@H](c2ccc(Cl)c(Cl)c2)c2ccccc21	-23%&-24%	9%[56.1 µM]
C[C@]12CCC(=O)C[C@H]1CC[C@@H]1[C@@H]2CC[C@]2(C)[C@@H](O)CC[C@@H]12	3%	.
CN1CCC23c4c5ccc(O)c4O[C@@H]2[C@H](O)C=CC3C1C5 (stereo partly drawn)	.	0%
CNCC[C@H](Oc1ccc(C(F)(F)F)cc1)c1ccccc1	8.9µM*!	-5%&6%&4%[56.1 µM]
Clc1ccc(CC[C@H](Cn2ccnc2)Sc2c(Cl)cccc2Cl)cc1	?	25%[21 µM]
CCN(CC)Cc1cc(Nc2ccnc3cc(Cl)ccc23)ccc1O	-8%	16%[21 µM]
C[C@@]12CCC(O)C[C@H]1CCC1C2CC[C@]2(C)C(=O)CCC12 (stereo partly drawn)	0%	3%
CN1C[C@H](C(=O)N[C@]2(C)O[C@@]3(O)[C@H]4CCCN4C(=O)[C@H](Cc4ccccc4)N3C2=O)C[C@H]2c3cccc4[nH]cc(c34)C[C@@H]21	23%	18%
CC(C)=CCN1CC[C@@]2(C)c3cc(O)ccc3CC1C2C (stereo partly drawn)	.	3%
CN1CCN(C2=Nc3cc(Cl)ccc3Nc3ccccc32)CC1	-17%	5%

Whole records, quoted from the list.
`CC(C)=CCN1CC[C@@]2(C)c3cc(O)ccc3CC1C2C` (stereo partly drawn) is entered as N370S GC mod: .; TDP1 block: 3%
`CN[C@@H]1C[C@@H](c2ccc(Cl)c(Cl)c2)c2ccccc21` is entered as N370S GC mod: -23%&-24%; TDP1 block: 9%[56.1 µM]

Next records:
SMILES	N370S GC mod	TDP1 block
CN1[C@H]2CC(OC(=O)[C@@H](CO)c3ccccc3)C[C@H]1[C@H]1O[C@H]12 (stereo partly drawn)	-2%[21.6 µM]	5%[21 µM]
C[C@@H]1CC([C@H](O)CC2CC(=O)NC(=O)C2)C(=O)[C@@H](C)C1 (stereo partly drawn)	-1%	13%
O=Cc1cn(Cc2ccc(F)cc2Cl)c2ccccc12	?	0%
COC(=O)C(c1ccccc1)C1CCCCN1 (stereo not drawn)	-12%	17%
CC(=O)Nc1nnc(S(N)(=O)=O)s1	-3%	5%
Nc1ccc([N+](=O)[O-])cc1	-15%	0%&9%
c1ccc2c(c1)Sc1ccccc1N2CC1CN2CCC1CC2 (stereo not drawn)	?	8%
CCCCCCCCCCCCCCCC[n+]1ccccc1	-21%&-14%	3%&3%

A section taken from the entries so far:
SMILES	N370S GC mod	TDP1 block
COc1ccccc1[N+](=O)[O-]	12%	0%&19%
CN1CCC(c2c[nH]c3ccc(O)cc23)CC1	5%&3%&-7%	9%[56.1 µM]
CN[C@@H]1C[C@@H](c2ccc(Cl)c(Cl)c2)c2ccccc21	-23%&-24%	9%[56.1 µM]
C[C@]12CCC(=O)C[C@H]1CC[C@@H]1[C@@H]2CC[C@]2(C)[C@@H](O)CC[C@@H]12	3%	.
CN1CCC23c4c5ccc(O)c4O[C@@H]2[C@H](O)C=CC3C1C5 (stereo partly drawn)	.	0%
CNCC[C@H](Oc1ccc(C(F)(F)F)cc1)c1ccccc1	8.9µM*!	-5%&6%&4%[56.1 µM]
Clc1ccc(CC[C@H](Cn2ccnc2)Sc2c(Cl)cccc2Cl)cc1	?	25%[21 µM]
CCN(CC)Cc1cc(Nc2ccnc3cc(Cl)ccc23)ccc1O	-8%	16%[21 µM]
C[C@@]12CCC(O)C[C@H]1CCC1C2CC[C@]2(C)C(=O)CCC12 (stereo partly drawn)	0%	3%
CN1C[C@H](C(=O)N[C@]2(C)O[C@@]3(O)[C@H]4CCCN4C(=O)[C@H](Cc4ccccc4)N3C2=O)C[C@H]2c3cccc4[nH]cc(c34)C[C@@H]21	23%	18%
CC(C)=CCN1CC[C@@]2(C)c3cc(O)ccc3CC1C2C (stereo partly drawn)	.	3%
CN1CCN(C2=Nc3cc(Cl)ccc3Nc3ccccc32)CC1	-17%	5%
CN1[C@H]2CC(OC(=O)[C@@H](CO)c3ccccc3)C[C@H]1[C@H]1O[C@H]12 (stereo partly drawn)	-2%[21.6 µM]	5%[21 µM]
C[C@@H]1CC([C@H](O)CC2CC(=O)NC(=O)C2)C(=O)[C@@H](C)C1 (stereo partly drawn)	-1%	13%
O=Cc1cn(Cc2ccc(F)cc2Cl)c2ccccc12	?	0%
COC(=O)C(c1ccccc1)C1CCCCN1 (stereo not drawn)	-12%	17%
CC(=O)Nc1nnc(S(N)(=O)=O)s1	-3%	5%

Screening results from PubChem BioAssay.
